Methyltransferases = Primary Screen for Target Class Profiling of Small Molecule Inhibitors of Methyltransferases. purified enzyme, MTase-Glo SAH luminescence; hits give low values. AID 1745853, 2022. calls only at 40 µM. hit rate 3.9% among 25,000; active = -50% or lower on at least one of six enzymes; inconclusive = the cases between; inactive = as a rule above -30% on all six;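 also: enzymes were COMT GAMT GNMT HNMT NNMT and PNMT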
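Each enzyme was assayed with SAM and its substrate. SAH formation detected by MTase-Glo luminescence; single-point 40 uM screen[…].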
Calls only; i = inactive; ? = inconclusive; + = active, no number. % is scaled to controls: 0 for no effect and ±100 for the full control effect. A portion of the library, so the mix of outcomes need not match the whole.

SMILES | Methyltransferases
COc1ccc(CNC(=O)c2ccc3c(=O)nc4c(-c5cccc(F)c5)n[nH]n4c3c2)cc1OC | i
CC1(C(=O)NC2CCCCCC2)Cn2c(cc3occc32)C(=O)N1Cc1cccc(Br)c1 (stereo unspecified) | i
NS(=O)(=O)c1ccc(-n2nc(C3CCOC3)nc2C2CCC2)cc1 (stereo unspecified) | i
COCCCN1C(=O)c2cc3ccccc3n2CC1(C)C(=O)NC1CCCCCC1 (stereo unspecified) | i
CC1(C(=O)NCc2ccc(F)cc2)Cn2cnc(C(=O)NCc3ccccc3Cl)c2C(=O)N1C1CC1 (stereo unspecified) | i
COc1ccc(CN2CCc3nc(C(=O)NCCOc4ccccc4)oc3CC2)cn1 | i
COCCCNC(=O)C1(C)Cn2nc(-c3ccccc3)cc2C(=O)N1c1cccc(Cl)c1C (stereo unspecified) | i
Cc1cc2[nH]c(=O)[nH]c2cc1S(=O)(=O)N1CCC(C)CC1 | i
COc1ccccc1CNC(=O)C1CN(C(C)C)C(=O)N1 (stereo unspecified) | i
O=C1c2cc3sccc3n2CC(C(=O)NC2CCCCCCC2)(c2ccccc2)N1Cc1ccccc1 (stereo unspecified) | i
CC1(C(=O)NC2CCCCCC2)Cn2c(cc3occc32)C(=O)N1CCN1CCCC1 (stereo unspecified) | i
Cn1c(=O)n(C)c2cc(S(=O)(=O)N3CCN(c4ccc(Cl)cc4)CC3)ccc21 | i
CCCn1c(=O)c2ccc(C(=O)NC(C)CC)cc2n2c(=O)n(Cc3cccc(Cl)c3)nc12 (stereo unspecified) | i
CC1(C(=O)NC2CCCCCC2)Cn2c(nc3ccccc32)C(=O)N1C1CCCCCC1 (stereo unspecified) | i
Cc1ccc(C(=O)N2CCCCCNC(=O)CC2c2ccccc2)s1 (stereo unspecified) | i
Cc1ccc(-c2n[nH]n3c2nc(=O)c2ccc(C(=O)NC4CCC(C)CC4)cc23)cc1 (stereo unspecified) | i
C=C1OC2CC(C(=O)O)C=CC2NC1=O (stereo unspecified) | i
CCS(=O)(=O)N[C@@H]1CN(Cc2ccccc2)C[C@H]1CN(C)C | i
CC1C(=O)Nc2ccc(S(=O)(=O)N3CCN(c4cccc(C(F)(F)F)c4)CC3)cc2NC1=O (stereo unspecified) | i
COc1cc(CC2COC(c3ccc(OC4OC(CO)C(O)C(O)C4O)c(OC)c3)C2CO)ccc1O (stereo unspecified) | i
CC(C)CCNC(=O)C1(C)Cn2c(cc3ccccc32)C(=O)N1Cc1ccccc1F (stereo unspecified) | i
Cc1ccc(CNC(=O)c2ccc3c(=O)nc4c(-c5ccccc5F)n[nH]n4c3c2)cc1 | i
O=C(CCn1ccc2cc(S(=O)(=O)N3CCCC3)ccc21)NCCc1ccccc1 | i
COCC(=O)N[C@H]1C[C@@H](CO)N(Cc2ccc(Br)o2)C1 | i
CSc1nc2cc(Oc3cccc(Cl)c3Cl)c(Cl)cc2[nH]1 | ?
COc1cccc(CNC(=O)CCc2nnc3n(CCCOC(C)C)c(=O)c4ccccc4n23)c1 | i
O=C(Cn1ccc2cc(S(=O)(=O)N3CCCCC3)ccc21)NCC1CCCO1 (stereo unspecified) | i
COc1ccc(-c2nnc3n(Cc4ccc(C)cc4)c(=O)c4ccccc4n23)c(O)c1 | i
CCCN1CCN(C(=O)c2ccc3c(c2)n(CC)c(=O)c2ccnn23)CC1 | ?
Cc1cc(C(=O)N2CCCn3ccnc3C2c2ccccc2)n(C)n1 (stereo unspecified) | i
Cc1cc(C2CCCN2C(=O)c2ccc(F)c(F)c2)on1 (stereo unspecified) | i
CC(C)Cn1c(=O)c2ccc(C(=O)NC(C)C)cc2n2c(SCC(=O)Nc3ccc(F)cc3)nnc12 | i
CCOc1ccccc1OCCN[C@H](C)Cc1ccc(OC)c(S(N)(=O)=O)c1 | ?
CCOc1ccc(C(=O)CSc2nnc3n(C)c(=O)c4ccc(C(=O)NC5CCCCC5)cc4n23)cc1 | i
O=C1CN(Cc2ccccc2)S(=O)(=O)c2ccccc2N1Cc1ccccc1 | i
Clc1ccc(C2Nc3ccc4ccccc4c3C3C=CCC32)cc1 (stereo unspecified) | i
COc1ccc(S(=O)(=O)N2CCCC(CN3CCOCC3)CC2)cc1 (stereo unspecified) | i
O=C(CCc1nc2ccccc2s1)NC1CCc2n[nH]c(=O)n2CC1 (stereo unspecified) | i
COc1ncc(-c2ccc3c(Nc4cc(Oc5cc(F)cc(F)c5)cc(C(=O)O)c4)c(S(=O)(=O)NC4CC4)cnc3c2)c(OC)n1 | ?
Cc1cc2[nH]c(=O)[nH]c2cc1S(=O)(=O)N1CCC(Cc2ccccc2)CC1 | i

The closing two records of the part before open the next one.
SMILES | Methyltransferases
COc1ncc(-c2ccc3c(Nc4cc(Oc5cc(F)cc(F)c5)cc(C(=O)O)c4)c(S(=O)(=O)NC4CC4)cnc3c2)c(OC)n1 | ?
Cc1cc2[nH]c(=O)[nH]c2cc1S(=O)(=O)N1CCC(Cc2ccccc2)CC1 | i
CC[C@H]1OC(=O)[C@H](C)[C@@H](O[C@H]2C[C@@](C)(OC)[C@@H](O)[C@H](C)O2)[C@H](C)[C@@H](O[C@@H]2O[C@H](C)C[C@H](NC)[C@H]2O)[C@](C)(O)C[C@@H](C)CN(C)[C@H](C)[C@@H](O)[C@]1(C)O | i
CC(C)CCN1C(=O)c2c(-n3cccc3)c3cc(F)ccc3n2CC1(C)C(=O)NC1CCCCCC1 (stereo unspecified) | i
Cc1ccc(CN2C(=O)c3cc4ccccc4n3CC2(C)C(=O)NCCC(C)C)cc1 (stereo unspecified) | i
CCNc1nccc(N2CCC(CC(=O)NCC(C)C)CC2)n1 | +
CCCn1c(=O)c2cc(Cl)ccc2n2c(=O)n(CC(=O)NCc3ccccc3Cl)nc12 | i
CC1(C)CCCC2(C)C1CC(=O)C13CC(CCC12)C(O)(CO)C3 (stereo unspecified) | i
C[C@H]1C[C@H]2[C@@H]3CCC4=CC(=O)C=C[C@]4(C)[C@@]3(F)[C@@H](O)C[C@]2(C)[C@@]1(O)C(=O)COP(=O)(O)O | i
COCCCN1C(=O)c2cc(-c3ccc(C(C)C)cc3)nn2CC1(C)C(=O)NC1CCCCC1 (stereo unspecified) | i
CNc1cc(C2CC(NC(=O)COc3ccc(Cl)cc3C)C2)nc(N)n1 (stereo unspecified) | +
CC(C)CNC(=O)c1ccc2c(=O)n(C(C)C)c3nn(CC(=O)Nc4cccc(F)c4)c(=O)n3c2c1 | i
COc1ccccc1NC(=O)CSc1nnc2n(CC(C)C)c(=O)c3ccccc3n12 | i
CC(=O)N1c2ccc(S(=O)(=O)N3CCCC3)cc2CC1C(=O)NCc1c(C)nn(C)c1C (stereo unspecified) | i
Fc1ccc2c(c1)C1C=CCC1C(c1ccc(Cl)cc1)N2 (stereo unspecified) | i
COc1ccc(C2=NOC3(CCN(Cc4cccn4C)C3)C2)cc1 (stereo unspecified) | i
COc1cccc(CCC(=O)NC2CCc3nn(CC4CC4)c(=O)n3CC2)c1 (stereo unspecified) | i
COc1ccc(C(=O)Nc2nc3c(s2)C[C@@H]2[C@](C)(CO)[C@H](O)CC[C@@]2(C)[C@@H]3CC(=O)NC2CCCC2)cc1 | i
Cc1[nH]c(=O)[nH]c(=O)c1CC(=O)N[C@@H]1COCC[C@@H]1OCc1ccccc1 | i
COc1cccc(CNC(=O)c2ccc3c(=O)nc4c(-c5ccc(Cl)cc5)n[nH]n4c3c2)c1 | i
COc1ccccc1C(=O)N1CCCN(c2nnc3ccccn23)CC1 | i
Cc1ccc(O[C@H]2CCOC[C@H]2NC(=O)CCc2c(C)noc2C)cn1 | i
COc1cccc(CCC(=O)N2CCC3(CC2)NC(=O)N(c2cccc(F)c2)N3)c1 | i
CC(C)CNC(=O)c1ccc2c(=O)n(CC(C)C)c3nn(C)c(=O)n3c2c1 | i
Cc1cc(C)c(NC(=O)N(Cc2ccc3c(c2)Cc2ccccc2-3)C2CCCCCC2)c(C)c1 | +
CC(C)C1c2cccn2CCN1C(=O)Nc1cccc(F)c1 (stereo unspecified) | i
CC(C)Cn1c(=O)c2ccc(C(=O)NC3CCCC3)cc2n2c(=O)n(CC(=O)NCc3ccccc3)nc12 | i
CSc1ccc(CCNC(=O)Cn2ccc3cc(S(=O)(=O)N4CCCC4)ccc32)cc1 | i
CC1CCCCC1NC(=O)C1(C)Cn2c(ccc2-c2ccco2)C(=O)N1CCCc1ccccc1 (stereo unspecified) | i
Cc1ccc(C)c(N2CCN(C(=O)c3ccc4c(=O)[nH]c5c(C(=O)NC(C)C)sc(=S)n5c4c3)CC2)c1 | +
CC[C@@]1(O)C(=O)OCc2c1cc1n(c2=O)Cc2cc3cc(O)ccc3nc2-1 | i
O=C1/C(=C/c2ccsc2)CC/C1=C\c1cccs1 | i

Given with each value named: four of the compounds above
CC1(C(=O)NC2CCCCCC2)Cn2c(nc3ccccc32)C(=O)N1C1CCCCCC1 (stereo unspecified)
  Methyltransferases: i
COc1ccccc1NC(=O)CSc1nnc2n(CC(C)C)c(=O)c3ccccc3n12
  Methyltransferases: i
CCCn1c(=O)c2ccc(C(=O)NC(C)CC)cc2n2c(=O)n(Cc3cccc(Cl)c3)nc12 (stereo unspecified)
  Methyltransferases: i
O=C1c2cc3sccc3n2CC(C(=O)NC2CCCCCCC2)(c2ccccc2)N1Cc1ccccc1 (stereo unspecified)
  Methyltransferases: i

Next part.
SMILES | Methyltransferases
CCOCCCN1C(=O)c2cc3ccc(OC)cc3n2CC1(C)C(=O)NC1CCCCC1 (stereo unspecified) | i
COc1ccc2nccc(C(=O)CC[C@@H]3CCN(CC#Cc4cc(F)cc(F)c4F)C[C@@H]3C(=O)O)c2c1 | i
CCCn1c(=O)c2ccc(Cl)cc2n2c(=O)n(CC(=O)Nc3cccc(Cl)c3)nc12 | i
CCCn1c(=O)c2ccc(C(=O)NC3CCCC3)cc2n2c(=O)n(CC(=O)Nc3ccc(C)cc3C)nc12 | i
CC(C)(C)NCC(O)COc1cccc2[nH]c(=O)[nH]c12 (stereo unspecified) | i
Cc1nc(C2CC(O)C2)cc(N2CCC(c3nncn3C)CC2)n1 (stereo unspecified) | i
CCCn1c(=O)c2ccccc2n2c(SCc3ccc(C)cc3)nnc12 | i
CCC(C)NC(=O)c1ccc2c(=O)n(CC(C)C)c3nn(Cc4cccc(C)c4)c(=O)n3c2c1 (stereo unspecified) | i
CCC(C)/C=C(C)/C=C/C1=CC2=C(Cl)C(=O)C(C)(OC(C)=O)C(=O)C2=CN1C(CC(=O)O)C(=O)O (stereo unspecified) | i
Oc1ccc(Nc2nc(-c3ccc(Cl)cc3)cs2)cc1 | i

Exported in CSV form: part of the list above
SMILES,Methyltransferases
Cc1nc(C2CC(O)C2)cc(N2CCC(c3nncn3C)CC2)n1 (stereo unspecified),i
CCCn1c(=O)c2ccc(C(=O)NC3CCCC3)cc2n2c(=O)n(CC(=O)Nc3ccc(C)cc3C)nc12,i
Oc1ccc(Nc2nc(-c3ccc(Cl)cc3)cs2)cc1,i
COc1ccc2nccc(C(=O)CC[C@@H]3CCN(CC#Cc4cc(F)cc(F)c4F)C[C@@H]3C(=O)O)c2c1,i
CCC(C)/C=C(C)/C=C/C1=CC2=C(Cl)C(=O)C(C)(OC(C)=O)C(=O)C2=CN1C(CC(=O)O)C(=O)O (stereo unspecified),i

(further entries)
SMILES | Methyltransferases
CCc1cc2c(cc3n2CC(C)(C(=O)NC2CCC(C)CC2)N(Cc2ccccc2C)C3=O)s1 (stereo unspecified) | i
C/C=C(/C)C(=O)O[C@H]1C[C@]2(C)O[C@@H]2[C@@H](OC(C)=O)[C@@]2(C)CC[C@@](O)(C(C)C)[C@H]12 | i
CC(=O)O[C@@H]1C(O)C[C@@]2(C)C(CC[C@@H](C)C23Cc2c(O)cc4c(c2O3)CNC4=O)C1(C)C (stereo partly specified) | i
COc1ccc(C(=O)Nc2cnc(-c3ccc(Cl)cc3)nc2)cc1 | i
Fc1cccc(-c2nnn3c2nc(NCc2ccc4c(c2)OCO4)c2cc(Cl)ccc23)c1 | i
Cc1ccsc1CN1CCc2[nH]nc(C(=O)N(C)C)c2C1 | i
CN1CCCN(CC(=O)N2CCCC(c3ccc(C(=O)O)cc3)C2)CC1 (stereo unspecified) | i
CC1C2=CC(=O)OC2(O)CC2C1C(OC(=O)c1ccccc1)C(OC(=O)c1ccccc1)C1(O)C2(C)CCC(O)C1(C)C(=O)O (stereo unspecified) | i
CNC(=O)c1cc(C2CC2)nc2onc(C3CCCN3C(=O)NC(C)c3ccccc3)c12 (stereo unspecified) | i
Nc1ccc(S(=O)(=O)Nc2ccnn2-c2ccccc2)cc1 | i
CCOC(=O)c1ccc(CNC(=O)c2cn(CCCc3ccccc3)nn2)o1 | i
COCCCNC(=O)C1(C)Cn2nc(-c3ccccc3)cc2C(=O)N1c1ccc(C(C)C)cc1 (stereo unspecified) | i
CS(=O)(=O)NC1CCN(c2cc(C3CC(N)C3)nc(N)n2)CC1 (stereo unspecified) | i
CC(=O)c1cc(C(=O)N[C@@H](C)Cn2ccc(-c3ccc(C#N)c(Cl)c3)n2)[nH]n1 | i
CCCN1C(=O)c2c(C(=O)Nc3ccc(CC)cc3)ncn2CC1(C)C(=O)NCc1ccccc1 (stereo unspecified) | i
CNC(=O)C1(N2CCC[C@H]2C(=O)N2CC[C@@H](O)C2)CCCCC1 | i
COCCCNC(=O)C1(C)Cn2nc(-c3ccccc3)cc2C(=O)N1c1ccc(Cl)cc1C (stereo unspecified) | i
O[C@@H]1CO[C@H]2[C@@H]1OC[C@@H]2n1nnnc1SCc1ccco1 | i
COc1ccc(CCN2C(=O)c3cc4ccccc4n3CC2(C)C(=O)NCCC(C)C)c(OC)c1 (stereo unspecified) | i
CCCc1nn(-c2cccc(C)c2)c(=O)n1CC(=O)NCc1ccc(C)o1 | i
CC(C)CN(Cc1cccnc1)C1CN(S(=O)(=O)Cc2ccccc2F)C1 | i
